# Compound activity: PubChem, National Center for Advancing Translational Sciences (NCATS)
# HSD17B inhib – HSD17B dehydrogenase inhibition. recombinant HSD17B10, NADH fluorescence kinetic; many of its hits are not listed in these tables. Potency, µM (doses to about 57.1 µM), for inactives: top-dose activity change, negative = inhibition, usual class: inhibitors. actives 7.6% (n = 75,000). AID 893; active = well fitted inhibition curve with a large enough effect; inconclusive = small, poorly fitted or top-dose-only effect; inactive = no such curve, though single readings can be large or run the other way;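 note: the protocol describes HADH2 (HSD17B10) and not the HSD17B4 of the title; nearly all actives have a fitted effect of over 70% in size; most hits overshoot -100% by far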
#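 Enzyme plus compound, 15 min room temperature; substrate mix added (NAD+ 1 mM, beta-hydroxybutyryl-CoA 90 uM final); plates read kinetically for NADH fluorescence. HADH2 was His-tagged, E. coli-derived, 20 nM.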
# The depositor's hits bear a star; ? = inconclusive; [ ] = remark or other dose. % is set by controls: 0 for no effect and ±100 for the full control effect; potency is the fitted concentration of half-maximal effect. The list is partial; rates above refer to the full screens.
SMILES,HSD17B inhib
O=C(Nc1ccc(Cc2ccc(NC(=O)C3CC3)c(O)c2)cc1O)C1CC1,0%
CCN1CCN(C(c2cccs2)C(C)NS(=O)(=O)c2ccc(F)cc2)CC1 (stereo not drawn),9%
COc1ccccc1C(c1nnnn1C(C)(C)C)N1CCN(Cc2ccncc2)CC1 (stereo not drawn),3%
Cc1cc(=O)[nH]c(N2CCCC2)n1,20%
O=C(Cc1cccs1)NCc1ccco1,-1%
CCOc1ccc(C2/C(=C(/O)c3ccccc3)C(=O)C(=O)N2CCCN(C)C)cc1OC (stereo not drawn),18%
O=C1c2ccccc2C(Nc2ccc3nc(-c4cccnc4)[nH]c3c2)N1Cc1ccco1 (stereo not drawn),-28%
Cc1cc(-c2nc3ncccc3o2)ccc1NC(=O)CC(C)C,25µM*
COc1ccccc1CN1CCC2(CC1)CCN(C(=O)c1ccco1)CC2,5%
O=C1CCC(C(=O)OCc2cc(Cl)ccc2OC(F)F)N1 (stereo not drawn),8%
O=c1c2ccccc2c2ccccc2c(=O)n1Cc1ccco1,3%
CN(C)CCCN1C(=O)c2oc3ccccc3c(=O)c2C1c1cccs1 (stereo not drawn),-20%
COc1ccc(N(CC(=O)NCc2ccco2)S(=O)(=O)c2c(C)nn(C)c2C)cc1,0%
CN1C(=O)CSc2ccc(NC(=O)NCc3cccnc3)cc21,-5%
COc1ccc(Cc2nc(-c3ccc(-n4cccc4)cc3)no2)cc1OC,?
O=C(O)[C@H]1C[C@@H](CP(=O)(O)O)CCN1,-6%
C=C(C)C1CCC(C)=C1CC(C)(C)/C=N\n1cnnc1 (stereo not drawn),-1%
CN(CCCNC(=O)C1CCN(S(=O)(=O)N2CCC3(CC2)OCCO3)CC1)Cc1ccccc1,6%
COCCn1nnnc1C(c1cc2cc(OC)ccc2[nH]c1=O)N1CCC(Cc2ccccc2)CC1 (stereo not drawn),3.2µM*
CCN1CCCC1CNC(=O)C1c2ccccc2C(=O)N(CCOC)C1c1ccc(F)cc1 (stereo not drawn),-7%
COCCNC(=O)C1(CC(C)C)C=CCN1C(=O)OC (stereo not drawn),-1%
O=C(COc1ncnc2ccccc12)NC1CCS(=O)(=O)C1 (stereo not drawn),-13%
O=C1CCCc2nc(N3CCN(C(c4ccccc4)c4ccccc4)CC3)ncc21,7%
CCCn1c(SCC(=O)N2CCN(S(=O)(=O)c3ccc(Cl)cc3)CC2)n[nH]c1=O,-2%
CSC1=NCCN1C(=O)Cc1cccs1,-4%
Cc1nnc(SCCCN2C(=O)c3ccccc3C2=O)o1,-1%
O=C(c1cc2ccccc2o1)c1nc2c(n1O)CCCCC2,0%
O=C(OCCOc1ccc(Br)cc1)c1cnccn1,3%
O=C(CN1C(=O)CSc2ccccc21)Nc1ccc2c(c1)OCCO2,-6%
Cc1c(C(=O)N2CCOCC2)sc2ncn(CC(=O)N3CCC(C)CC3)c(=O)c12,4%
COc1ccc(CNC(=O)c2cnn3c(C(F)F)cc(C)nc23)cc1OC,6%
COc1cc(C(=O)NCc2nnc(SCC(=O)Nc3cccc(C)c3)o2)cc(OC)c1OC,0%
CCOc1ccccc1C(=O)NC(C)c1ccc2c(c1)OCO2 (stereo not drawn),2%
CSc1cccc(NC(=O)C2CCN(S(C)(=O)=O)CC2)c1,6%
c1ccc(C2[C@H]3CN(Cc4cccnc4)[C@H](c4ccccc4)C34CC2(c2cccnc2)C4)cc1 (stereo partly drawn),17%
Cc1ccc(NC(=O)C2(N(CC(C)C)C(=O)Cn3nnnc3N)CCCCC2)cc1,-3%
CC(C)(C)OC(=O)N1CC=C2C(C#N)=C(N)C(C#N)(C#N)C(c3cccs3)C2C1 (stereo not drawn),?
Nc1cccc(S(=O)(=O)c2cccc(N)c2)c1,8%
COC(=O)[C@@]1(Cc2ccc(OC)cc2)[C@H]2c3cc(C(=O)N(C)C)n(CCc4ccc(OC)c(Br)c4)c3C[C@H]2CN1C(=O)c1ccccc1,14%
CN(Cc1ccco1)c1ncnc2ccc(-c3ccccc3C(F)(F)F)cc12,-1%
COC(=O)[C@@]1(Cc2ccccc2)[C@H]2c3cc(C(=O)N(C)C)n(Cc4ccccc4)c3C[C@H]2CN1C(=O)c1ccccc1,2%
CCOC(=O)CSc1nc2sc(C)c(C)c2c(=O)n1C,-1%
COc1cc(C2N(c3ccccc3)CCN2c2ccccc2)ccc1OC(C)=O,4%
CCOc1c(Br)cc(CNc2ncn[nH]2)cc1OC,-7%
Clc1ccc(OCc2nn3c(-c4ccncc4)nnc3s2)cc1,0%
O=C(Nc1cccnc1)c1ccc(COc2ccccc2Br)o1,-14%
CCN(CC)C(=O)CSc1nnc(-c2ccccn2)n1-c1ccc(C)c(C)c1,-6%
O=C1COc2ccc(C(=O)COC(=O)C3CCN(S(=O)(=O)c4cccs4)CC3)cc2N1,8%
Cc1ccc(N2CCN(S(=O)(=O)N(C)C)CC2)c(C)c1,0%
Cc1ccccc1NC(=O)CN1CCC(NC(=O)Nc2ccccc2)CC1,6%

# Next compounds follow:
SMILES,HSD17B inhib
CCC1=C/C(=C/N(C)c2ccccc2)C(=O)S1,25µM*
CCOC(=O)c1nn(-c2sc(C(=O)OC)c(C)c2C(=O)OC)cc1O,5%
O=C(Cc1cccs1)N(c1ccc(Cl)cc1)C1C=CS(=O)(=O)C1 (stereo not drawn),-8%
Cc1ccc(-c2nc3ncccc3o2)cc1NC(=O)c1ccco1,?
COc1ccccc1OCC(=O)Nc1cccc(-c2nc3ccccc3o2)c1,-3%
CN(CC(=O)Nc1nc2ccccc2s1)S(=O)(=O)c1ccccc1,-9%
Cc1[nH]n(-c2ccccc2)c(=O)c1/C=N/O,3%
Cc1occc1C(=O)NCc1cccs1,3%
Cc1ccc(N(CC(=O)N2CC(=O)Nc3ccccc32)S(=O)(=O)c2ccc3c(c2)OCCO3)cc1,-4%
Cc1nn(-c2ccccc2)c(C)c1/C=N/O,-10%
CCCNC(=O)c1cc(-c2ccc(Br)cc2)on1,-2%
CCOc1ccc(-c2nnn(CC(=O)Nc3ccccc3OC)n2)cc1OCC,4%
COc1ccc2c(c1)CCc1c(C(=O)N3CCc4ccccc4C3)noc1-2,-12%
Cc1nnc(SCC(=O)n2c3c(c4ccccc42)CCCC3)s1,17%
O=C(Nc1cccnc1)c1ccc2c(c1)OCO2,-2%
Cc1ccccc1S(=O)(=O)Nc1nc2ccccc2nc1N1CCOCC1,-12%
Cc1ccc(NCc2nnc(SCCN3CCCCC3)n2CC2CCCO2)cc1Cl (stereo not drawn),3%
COc1ccc2c(CCNC(=O)c3ccco3)c[nH]c2c1,-5%
O=C(Oc1ccccc1)N1CCN(c2ccc(F)cc2)CC1,-10%
CCCOC(=O)c1ccc(NC(=O)C2CCCO2)cc1 (stereo not drawn),-8%

# An excerpt from above in order of count of non-hydrogen atoms, falling.
SMILES,HSD17B inhib
COc1cc(C(=O)NCc2nnc(SCC(=O)Nc3cccc(C)c3)o2)cc(OC)c1OC,0%
CN(C)CCCN1C(=O)c2oc3ccccc3c(=O)c2C1c1cccs1 (stereo not drawn),-20%
COCCNC(=O)C1(CC(C)C)C=CCN1C(=O)OC (stereo not drawn),-1%

# Carrying on:
SMILES,HSD17B inhib
CCOC(=O)c1ccc(-n2[nH]c(-c3ccccc3)cc2=O)cc1,3%
Cc1cc(C)nc(-n2nc(C)cc2Nc2ccccc2)n1,8%
COc1ccc(OC)c(NC(=O)COc2ccc(S(=O)(=O)NC(C)C)cc2)c1,-4%
CC/C(=N\O)C(C)(C)/[N+]([O-])=C/c1ccc(Br)cc1,16%
COCCNC(=O)C(c1cccc(OC)c1)N(Cc1cccs1)C(=O)Cn1nnc2ccccc21 (stereo not drawn),2%
Cc1ccc2nc(-c3ccc(NC(=O)c4ccco4)cc3)[nH]c2c1,25µM*
CCCOc1ccc(N2CC(C(=O)NC(C)C)CC2=O)cc1 (stereo not drawn),-1%
COC(C(=O)Nc1cccc(F)c1)c1ccccc1 (stereo not drawn),-3%
O=C(O)c1ccccc1C1=Nc2ccc(O)cc2Oc2cc(O)ccc21,-9%
CC1CCN(C(c2ccc(N(C)C)cc2)c2nnnn2C(C)(C)C)CC1 (stereo not drawn),2%

# Of the compounds above, 12 have a thiophene ring, fused or not.
SMILES,HSD17B inhib
CCN1CCN(C(c2cccs2)C(C)NS(=O)(=O)c2ccc(F)cc2)CC1 (stereo not drawn),9%
O=C(Cc1cccs1)NCc1ccco1,-1%
CN(C)CCCN1C(=O)c2oc3ccccc3c(=O)c2C1c1cccs1 (stereo not drawn),-20%
CSC1=NCCN1C(=O)Cc1cccs1,-4%
Cc1c(C(=O)N2CCOCC2)sc2ncn(CC(=O)N3CCC(C)CC3)c(=O)c12,4%
CC(C)(C)OC(=O)N1CC=C2C(C#N)=C(N)C(C#N)(C#N)C(c3cccs3)C2C1 (stereo not drawn),?
CCOC(=O)CSc1nc2sc(C)c(C)c2c(=O)n1C,-1%
O=C1COc2ccc(C(=O)COC(=O)C3CCN(S(=O)(=O)c4cccs4)CC3)cc2N1,8%
CCOC(=O)c1nn(-c2sc(C(=O)OC)c(C)c2C(=O)OC)cc1O,5%
O=C(Cc1cccs1)N(c1ccc(Cl)cc1)C1C=CS(=O)(=O)C1 (stereo not drawn),-8%
Cc1occc1C(=O)NCc1cccs1,3%
COCCNC(=O)C(c1cccc(OC)c1)N(Cc1cccs1)C(=O)Cn1nnc2ccccc21 (stereo not drawn),2%

# The list goes on.
SMILES,HSD17B inhib
CC(=O)Nc1nonc1NC(C)=O,10%
O=[n+]1cc(-c2ccccc2)n([O-])c2c1CCC2,8%
CCCn1c(-c2ccc(F)cc2)nc2c(NCCN(C)C)nc(C)nc21,20µM*
CC(=O)c1cc(-c2ccc(F)cc2)n(CC(=O)NCc2cccs2)c1C,13%
CC(=O)Nc1ccc(SCC(=O)OCC(=O)NC(=O)NCc2ccco2)cc1,-6%
CCCCN(C(=O)Cn1nnc2ccccc21)C(C(=O)NCCOC)c1ccc(OC)cc1OC (stereo not drawn),12%
O=C(CC(CC(=O)c1ccccc1)C(=O)O)c1ccccc1,-3%
Nc1c2c(nc3ccn(-c4ccccc4)c(=O)c13)CCCCC2,32µM*
COc1ccc(S(=O)(=O)N2CCN(Cc3c[nH]c4ccccc34)CC2)cc1,14%
NC(N)=NNC(=O)C(=O)O,2%[11.4 µM]
COc1ccc(CCN2C(=O)c3[nH]nc(-c4ccccc4O)c3C2c2ccc(C)cc2)cc1OC (stereo not drawn),-8%
CCn1c(SCC(=O)Nc2ccc(OC)c(OC)c2)nnc1-c1cccs1,8%
COc1ccccc1-c1c(C)nn2c(C)cc(C)nc12,4%
Cn1c(=O)[nH]c(=O)c2c1nc(N1CCCC1)n2CCCSc1nc2ccccc2o1,8%
Cc1cc(C)nc(Sc2c(C)n[nH]c2C)n1,2%
Cc1ccc(N2C(=O)CC(N3CCN(C4CCc5ccccc5C4)CC3)C2=O)cc1 (stereo not drawn),-2%
COc1ccccc1-c1n[nH]c(=S)n1-c1ccccc1,-11%
COc1cc(S(=O)(=O)N(Cc2cccs2)CC2CCCO2)ccc1-n1cnnn1 (stereo not drawn),1%
CCOC(=O)c1cc(OC(=O)c2cccnc2)n(-c2ccccc2)n1,-7%
Cc1occc1C(=O)Nc1ccccc1NC(=O)c1ccoc1C,5%
Oc1ccccc1Nc1nc(NCC2CCCO2)c2ccccc2n1 (stereo not drawn),1%
S=c1ccss1,?
CNC(=O)CN(c1cccc2ccccc12)S(C)(=O)=O,12%
CCOC(=O)N1CCN(c2nc(C(F)(F)F)nc3c(C)cc(C)cc23)CC1,?
O=C(O)[C@@H]1[C@@H](C(=O)NCc2ccccn2)[C@@H]2C=C[C@@H]1O2,-10%[11.4 µM]
c1cc(-c2nc3cc(Oc4ccc5oc(-c6ccncc6)nc5c4)ccc3o2)ccn1,2.5µM*
CSc1nnc(CNC(=O)c2ccccc2)n1-c1ccc(F)cc1,3%
O=C(c1cnccn1)N1CCC2(CCN(Cc3nccs3)CC2)CC1,-5%
COc1cccc(C2CC(c3cccc(OC)c3)n3nc(N)nc3N2)c1 (stereo not drawn),25µM*
COc1ccc(C(=O)NCCn2cc(SCC(=O)Nc3cc(C)on3)c3ccccc32)cc1OC,-1%
Cc1csc2nc(CNC(=O)c3ccco3)cn12,3%
c1cc(-c2nc3ccccc3o2)nc(-c2nc3ccccc3o2)c1,0%
O=C(Cn1ncc2c(=O)oc3ccccc3c21)N(Cc1ccco1)C1CCCCC1,-5%
COC(=O)CSc1nnc(-c2ccc(NS(=O)(=O)c3ccccc3)cc2)o1,-13%
O=C(O)CC(CC(=O)O)C(=O)O,9%[11.4 µM]
CC(C)CN(CC(C)C)c1nc(N)c(C#N)c(CC#N)c1C#N,-30%
COC(=O)C(/C=C/C(C)Cc1cc(Br)cc(OCc2ccccc2)c1OC)OCc1ccccc1 (stereo not drawn),-5%[11.4 µM]
COc1cc(CN2CCN(c3ccccc3F)CC2)cc(OC)c1O,4%
O=C(CCCCn1c(=O)c2ccccc2n(CC(=O)Nc2cccc(F)c2)c1=O)NCc1ccco1,4%
Nc1nc2nc3c(nc2c(=O)[nH]1)CN(c1ccc(C(=O)O)cc1)C3=O,6%[11.4 µM]

# Copied from the list.
# `Cc1ccc(NC(=O)C2(N(CC(C)C)C(=O)Cn3nnnc3N)CCCCC2)cc1` in HSD17B inhib is entered as -3%
# `Cc1ccccc1NC(=O)CN1CCC(NC(=O)Nc2ccccc2)CC1` in HSD17B inhib is entered as 6%

# (next part)
SMILES,HSD17B inhib
CC(=O)Nc1ccccc1NC(=O)C(F)(F)F,3%
NC12CC3CC(C1)CC(O)(C3)C2,14%
C[C@H](NCCN(C)C)[C@@H]1CCC2C3CCc4cc(O)ccc4[C@H]3CCC21C (stereo partly drawn),12%[11.4 µM]
CCSc1nc2c(c(=O)[nH]1)C(C(C)C)C(C#N)=C(N)O2 (stereo not drawn),8%
O=C(CSc1nnc(-c2cccnc2)n1Cc1ccco1)c1ccc(Cl)c(Cl)c1,0%
